CSC inhib: cancer stem cell inhibition; cancer stem cell-like cells viability, luminescence; inhibition, % at 7.5 µM; hit rate 1.1% among 300,000;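 active = mean at 75% or more and at least half the replicates too; inconclusive = mean and replicates disagree; tested in HMLE shEcad cells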;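 note: 0% = median of negative and 100% = median of positive control wells; the first replicate is given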
PABP polyA inh: PABP-poly(A) binding inhibition; P11940; PABP-poly(A) RNA binding, fluorescence polarization; inhibition, % at 35 µM; hit rate 1% among 290,000; AID 2014;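 active = 50% or more with normal probe brightness, or confirmed in later tests; inconclusive = above 50% with abnormal brightness, or retests that disagree; inactive = below 50% or failed in later tests; about a fifth of its hits are not listed in these tables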;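 note: calls also rest on retests at 20 µM and on dose response follow-up; controls were probe without protein and protein plus probe with vehicle; some compounds called inactive have numbers as strong as hits; many hits fall short of the cut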
HIV Env fusion: inhibitors of HIV Env-mediated cell fusion | HeLa-JRFL Env/CEM21 cell fusion, luciferase | inhibition, % at 12.3 µM | hit rate 1.1% among 360,000;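 active = mean replicate inhibition score of at least 50 and every replicate individually at or above 50; inconclusive = only one of the two criteria met; inactive = mean below 50 and not all replicates reaching 50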;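 note: 0% = plate neutral controls and 100% = maraviroc near 300 nM; one replicate is shown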
UUG fidelity: alters start codon recognition fidelity in yeast; S. cerevisiae UUG-firefly luciferase reporter, luminescence/redox ratio; activity score, % at 18.7 µM; hit rate 0.13% among 350,000; AID 602363;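 active = replicate mean at a twofold rise or more, about +100% in these data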;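 note: firefly luciferase made from a UUG start codon reports start codon fidelity; reporter light over untreated wells divided by growth signal over untreated wells; some hits fall short of that in this replicate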
eIF4H FP inh: inhibitors of RNA binding by human eIF4H. hit rate 0.94% among 290,000. Q15056. eIF4H fluorescence polarization binding assay. inhibition, % at 35 µM;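 active = 50% or more with normal probe brightness, or confirmed in later tests; inconclusive = above 50% with abnormal brightness, or retests that disagree; inactive = below 50% or failed in later tests; about a fifth of its hits are not listed in these tables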;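 note: calls also rest on retests at 20 µM and on dose response follow-up; 0% = protein and probe with vehicle and 100% = probe without protein; strong numbers were not always called active; many hits fall short of the cut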
MT1-MMP act inh: MT1-MMP (human) activation inhibition; P50281; HT1080 RFP-PRO-GFP cells, GFP/RFP ratio fluorescence, overnight; percent of plate control window, DMSO zero; GFP/RFP ratio change, % at 20 µM; hit rate 0.061% among 360,000; AID 651647;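 active = GFP/RFP ratio change of at least 30% with cell ATP level not reduced by more than half and red fluorescence within 50% of control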; note: strong numbers were not always called active
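system = RFP-PRO-GFP reporter HT1080 cells | dosing = 20 µM single dose, 1% DMSO | timing = overnight cell settling, then overnight compound exposure, 37 °C, 5% CO2 | read-out basis = GFP/RFP fluorescence ratio | controls = DMSO and RFP-L50D-GFP cell wells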
Rce1 inh: yeast Ras-converting enzyme inhibition; yeast membranes, quenched prenylated peptide cleavage fluorescence; hit rate 0.27% among 290,000; calls only;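 active = fall in fluorescence gain of 50% or more versus controls, with final raw signal at or below 3038400; inconclusive = same 50% fall but final raw signal above 3038400; inactive = fall in fluorescence gain under 50%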;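 note: plate controls were neutral control wells for no effect and wells lacking membranes for full effect; tested at 10 µM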
Target sequence (Q03530 whole entry, looked up): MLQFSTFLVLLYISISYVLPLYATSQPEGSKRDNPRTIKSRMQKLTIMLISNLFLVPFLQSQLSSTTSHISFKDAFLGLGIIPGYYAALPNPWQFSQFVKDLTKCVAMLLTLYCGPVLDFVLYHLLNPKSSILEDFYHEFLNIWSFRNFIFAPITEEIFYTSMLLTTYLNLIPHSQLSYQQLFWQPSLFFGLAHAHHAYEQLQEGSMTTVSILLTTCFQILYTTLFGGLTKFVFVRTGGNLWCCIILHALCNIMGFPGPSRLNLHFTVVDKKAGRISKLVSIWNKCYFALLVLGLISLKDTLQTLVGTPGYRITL
eIF4H FP inh retest: recorded beside eIF4H FP inh, whose call it bears; inhibition, %; compound at 20 µM; confirmation average;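 mean of two retest wells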
PABP polyA inh retest: further read-out of PABP polyA inh, marked with its call; inhibition, %; compound at 20 µM; confirmation repeats;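 mean of two retest wells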
MT1-MMP act inh RFP: second read-out of MT1-MMP act inh, no call of its own (marks repeat the call); RFP signal change, %; measured here: RFP expression control read;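 0 = vehicle wells; hits needed this value within 50% of zero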
* hit, by the source's call; i = inactive; ? = inconclusive; / = no result given; & = joins results of further samples; [ ] = another dose, or the depositor's remark.

SMILES	CSC inhib	PABP polyA inh	HIV Env fusion	UUG fidelity	eIF4H FP inh	MT1-MMP act inh	MT1-MMP act inh RFP	Rce1 inh	others
CCOC(=O)C1CCCN(S(=O)(=O)c2ccc(Br)c(OC)c2)C1 (stereo unspecified)	6	2	/	-3	-9	0	-4	i
CCN(Cc1cc2ccc(C)cc2[nH]c1=O)C(=O)c1ccncc1	/	-2	/	/	-2	/	/	i
Cc1nc2c(=O)[nH]c(=S)[nH]c2[nH]c1=O	/	/	16	7	/	-17	1	/
Cc1[nH]c2ccccc2c1C(=O)COC(=O)Cn1c(C(F)(F)F)nc2ccccc21	-13	29	14	13	1	5	6	i
O=C(Nc1nc2ccccc2s1)c1ccc(N2CCCCC2)c([N+](=O)[O-])c1	-8	-6	24	/	-5	-12	-22	i
O=C(COC(=O)C1=COCCO1)Nc1ccccc1	-3	?	-19	/	0	0	1	i
Cc1c(CCOC(=O)CC23CC4CC(CC(C)(C4)C2)C3)sc[n+]1CC(=O)c1ccccc1	100*	-6	69*	/	-13	-9	-16	i
CC1CN(C(=O)c2cc(S(=O)(=O)N3CCN(c4ccccc4)CC3)ccc2Cl)CC(C)O1 (stereo unspecified)	-3	/	/	/	/	-4	-14	i
COc1cc(/C(C)=N/NC(=O)C(O)(c2ccccc2)c2ccccc2)ccc1O	-4	4	-7	/	0	1	1	i
Cc1noc(C)c1COc1ccccc1C(=O)N(C)Cc1ccc(C(C)(C)C)cc1	/	/	34	-8	/	-3	-26	/
C=CCc1ccc(OCc2ccc(C(=O)Nc3ccc(NC(C)=O)cc3)o2)c(OC)c1	/	-5	-19	-7	-14	3	0	i
Nc1ncnc2c1ncn2[C@@H]1O[C@H](CNCC(O)CO)[C@@H](O)[C@H]1O (stereo partly specified)	/	/	-11	-30	/	2	7	/
CN(C)c1ccc(C2CNC(c3ccc(Cl)c([N+](=O)[O-])c3)c3[nH]c4ccccc4c32)cc1 (stereo unspecified)	/	-6	2	1	3	-8	-8	i
N#Cc1ccc(NC(=O)c2cccs2)nc1	1	3	-25	-15	-7	-2	2	i
CNC(=O)c1sc(=S)n(-c2ccc(OC)cc2)c1N	-5	0	3	/	-4	4	3	i
Cc1ccc(OCC(=O)NNC(=O)CCC(=O)NCc2ccccc2)cc1	-15	1	/	-10	2	5	-1	i
Cc1nc(NC(=O)/C=C/c2ccccc2)sc1C(=O)N1CCCCC1	2	-14	3	/	-8	1	0	i
COc1ccc(Cl)cc1S(=O)(=O)N1CCN(C(=O)c2ccco2)CC1	1	-8	/	-9	1	0	-2	i
COc1cc(C(O)c2nc3ccccc3s2)cc(OC)c1OC (stereo unspecified)	-3	1	32	1	-3	7	-30	i
COc1ccc(Cn2nnnc2C(c2ccccc2Cl)N2CCN(C)CC2)cc1 (stereo unspecified)	/	2	/	-11	-10	-10	-5	i
O=C(O)C1=C[C@@H](C2CCCCC2)C[C@@H](OCc2ccc(CO)cc2)O1	2	1	-22	-5	10	-3	0	i
CCN(CC)S(=O)(=O)c1cc(NS(=O)(=O)c2cccc(Cl)c2)ccc1C	18	36	/	-4	-5	-2	-12	i
Cc1cccc2cc(COC(=O)c3ccco3)c(=O)[nH]c12	-2	-3	-168	-16	-6	6	6	i
O=C(Nc1cccc(S(=O)(=O)N2CCCCC2)c1)c1ccc(Cl)nc1	25	/	3	-7	/	-4	-23	/
CCCOc1ccc(N2CC(C(=O)Nc3ccccc3C(=O)NCc3ccco3)CC2=O)cc1 (stereo unspecified)	1	2	/	-7	0	2	-1	i
CC1=C(C(=O)NC2CC(C)(C)Cc3c2cnn3-c2ccc(C)cc2)OCCO1 (stereo unspecified)	3	-1	8	-14	-8	3	-2	i
Cn1c(=O)n(C)c2cc([N+](=O)[O-])c(N3CCN(CCO)CC3)cc21	8	0	1	-10	-4	2	5	i
Cc1cccc(NC(=S)NC2CCCCCC2)c1C	27	-2	1	/	-17	-2	-3	i
Nc1cc(C(=O)OCC(=O)NCc2ccco2)ccc1Cl	0	8	/	-8	18	-6	1	i
COCc1cc(Sc2ccc(Br)cc2)nc(-c2ccccc2)n1	16	1	/	-18	-4	0	0	i
COc1ccc(OCC(=O)N/N=C/c2ccncc2)cc1	5	5	4	-4	-11	-4	-1	i
Nc1nc2nc[nH]c2c(=O)[nH]1	-14	/	/	-14	/	-5	2	i
C#CCOCCOCCOCCNc1nc(OC)nc(N2CCN(C(=O)[C@H](CCCCN)n3cc(C(N)CO)nn3)CC2)n1 (stereo partly specified)	/	52*	/	/	60*	/	/	i
O=C(O)C1SCCN1S(=O)(=O)c1ccc2ccccc2c1 (stereo unspecified)	-12	-2	10	0	8	1	0	i
C=C(C)C(=O)Nc1nnc(-c2cccs2)s1	/	1	7	/	8	-2	1	i
O=C(NC(=S)NCc1ccccc1)c1ccc(Br)o1	0	11	6	-23	0	-1	2	i
CC(C)NC(=O)N(C)C[C@H]1Oc2ccc(NS(=O)(=O)c3cccs3)cc2C(=O)N([C@H](C)CO)C[C@@H]1C	/	/	-1[16.7 µM]	2&-20	/	26	-3	/
COc1ccc(CCN2C(=O)C3C4CC(C5C(C(N)=O)=NOC45)C3C2=O)cc1OC (stereo unspecified)	-20	6	/	-10	1	1	1	i
CN(C)c1ccc(S(=O)(=O)NCC(=O)OCC(=O)Nc2cc(Cl)cc(Cl)c2)cc1[N+](=O)[O-]	-7	-1	14	/	-4	8	9	i
CCN(CC)C(=O)CN(C#N)c1nc(OC)nc(N(C)C)n1	-2	-9	-2	-23	10	4	10	i
O=C(CC(=O)c1ccccc1)Nc1ccccc1C(F)(F)F	-6	4	-62	4	8	5	6	i
O=C(N[C@@H](Cc1c[nH]c2ccccc12)C(=O)O)C1CCN(S(=O)(=O)c2cccs2)CC1	-9	-6	0	-6	5	-3	-2	i
O=C(CSc1nnc(-c2cccnc2)o1)Nc1cccc(Cl)c1	-10	6	-25	-30	-13	1	1	i
O=C(Nc1cccc2cccnc12)c1cccc([N+](=O)[O-])c1	-12	-3	-1	-1	-6	1	0	i
O=C(CNC1CCCCC1)N1CCc2ccccc2C1	-7	14	-25	-8	-10	7	7	i
Cc1cc(C)c(NC(=O)CSc2cccc[n+]2[O-])c(C)c1	-20	/	-4	-12	/	2	-1	/
CCOc1cc(C(=S)N2CCOCC2)ccc1OS(=O)(=O)c1ccc(NC(C)=O)cc1	-10	5	?	/	5	6	-16	i
Cc1cc(C(=O)O)c(C)n1-c1ccccc1	-8	8	-30	-14	-7	3	-1	i
COC(=O)C1=C(C)NC2=C(C(=O)CCC2)C1c1coc2ccccc2c1=O (stereo unspecified)	10	2	/	-10	6	-2	3	i
Cc1cc(C)nc(SC2=CS(=O)(=O)c3ccccc32)n1	44	9	-64	-18	5	-6	-12	/
CCOc1ccc2nc(/N=C/c3c(C)[nH]n(-c4ccc(C)cc4)c3=O)sc2c1	-7	90	/	-26	-2	8	5	i	eIF4H FP inh retest=-6;PABP polyA inh retest=-10
CCOc1ccccc1NC(=O)CSc1ccc(-c2ccco2)nn1	-2	0	-2	6	13	0	0	i
COCCNC(=O)/C(C#N)=C/c1ccc(O)c([N+](=O)[O-])c1	-5	-10	-17	/	-7	5	-2	i
O=C(CN1CCN(CC(=O)Nc2ccccc2Cl)CC1)Nc1ccc(F)c(F)c1	-1	-7	19	-6	-4	3	-8	i
COc1ccc(C)cc1S(=O)(=O)n1c([N+](=O)[O-])cnc1C	-11	4	-5	-20	-4	3	3	i
CN1CCN(C(=O)/C=C/c2cn(-c3ccccc3)nc2-c2ccc3c(c2)OCCO3)CC1	-26	4	12	3	-14	-5	-5	i
O=C(/C=C(\c1ccccc1)n1cncn1)c1ccccc1	-4	23	-66	/	-6	0	3	i
O=C(CN1CCOCC1)N/N=C/c1ccco1	15	16	-6	/	6	-2	5	i
O=C1c2ccccc2C(=O)N1Cc1nc2ccccc2c(=O)n1CCN1CCOCC1	14	/	2	-17	/	-4	2	i
COc1ccc2c(c1)C(C)=CC(C)(C)N2S(=O)(=O)c1ccc(Br)cc1	-9	-4	-80	/	1	0	-10	i
CC(=O)N1N=C(c2ccccc2)OC12CCCC2	0	0	5	/	-4	-1	6	i

Of the compounds above, two have a CF3 group:
SMILES	CSC inhib	PABP polyA inh	HIV Env fusion	UUG fidelity	eIF4H FP inh	MT1-MMP act inh	MT1-MMP act inh RFP	Rce1 inh	others
Cc1[nH]c2ccccc2c1C(=O)COC(=O)Cn1c(C(F)(F)F)nc2ccccc21	-13	29	14	13	1	5	6	i
O=C(CC(=O)c1ccccc1)Nc1ccccc1C(F)(F)F	-6	4	-62	4	8	5	6	i

Sorted by molecular weight (falling): 6 of the compounds above.
SMILES	CSC inhib	PABP polyA inh	HIV Env fusion	UUG fidelity	eIF4H FP inh	MT1-MMP act inh	MT1-MMP act inh RFP	Rce1 inh	others
CCOc1cc(C(=S)N2CCOCC2)ccc1OS(=O)(=O)c1ccc(NC(C)=O)cc1	-10	5	?	/	5	6	-16	i
COc1ccc2c(c1)C(C)=CC(C)(C)N2S(=O)(=O)c1ccc(Br)cc1	-9	-4	-80	/	1	0	-10	i
CCOc1ccccc1NC(=O)CSc1ccc(-c2ccco2)nn1	-2	0	-2	6	13	0	0	i
O=C(CSc1nnc(-c2cccnc2)o1)Nc1cccc(Cl)c1	-10	6	-25	-30	-13	1	1	i
O=C(CC(=O)c1ccccc1)Nc1ccccc1C(F)(F)F	-6	4	-62	4	8	5	6	i
Cc1cc(C)c(NC(=O)CSc2cccc[n+]2[O-])c(C)c1	-20	/	-4	-12	/	2	-1	/
